# NS1 inh = inhibitors of influenza NS1 protein function. Potency, µM (highest dose often 46.1 µM), without a hit: at the highest dose activity, positive = more growth. 0.4% of 270,000 active. S. cerevisiae slowed by influenza A NS1, growth recovery by OD600. AID 2326; note: actives are rising curves; nearly all actives have a fitted effect of over 50% in size
#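 Read-out: OD600 growth recovery of NS1-expressing budding yeast. Cells grown overnight at 30C in -URA glucose medium, washed, resuspended and diluted 1:100 in 2% galactose assay medium, pH 6.0. Same strain lacking NS1 served as positive control.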
# LASV entry inh = inhibitors of Lassa virus binding or cell entry. Lassa virus pseudotype entry inhibition, cell reporter; control for the full effect not named in the record. Potency, µM (titrated, usually from 37.9 µM), for the others: top-dose activity change, negative = inhibition, most hits filed as inhibitors. 1.2% of 300,000 active. AID 540256; active means well fitted inhibition curve with a large enough effect; inconclusive means small, poorly fitted or top-dose-only effect, or effect the other way; inactive means flat fitted curve, though single readings scatter; tested in HEK293 cells; note: % is set by controls: 0 for no effect and ±100 for the full control effect; nearly all actives have a fitted effect of over 50% in size; luciferase read-out
# MARV entry inh = blocks Marburg virus binding to or entry into cells; 1.8% of 300,000 active; Potency, µM (top dose mostly 37.8 µM), for inactives: at the top dose activity change, negative = inhibition, actives largely listed as inhibitors; Marburg virus pseudotyped entry inhibition, cell reporter; control for the full effect not named in the record; about a third of the inactives were read at about 46 µM; active = well fitted inhibition curve with a large enough effect; inconclusive = small, poorly fitted or top-dose-only effect, or effect the other way; inactive = flat fitted curve, though single readings scatter; tested in HEK293 cells; about a fifth of its hits are not listed in these tables; note: % is set by controls: 0 for no effect and ±100 for the full control effect; luciferase read-out
# SARS PLpro yeast = inhibitors of SARS-CoV papain-like protease in yeast. Potency, µM (series often up to 32.9 µM), inactives show at the highest dose activity, positive = growth rescue. 0.19% of 330,000 active. S. cerevisiae expressing SARS-CoV PLpro, growth rescue; control for the full effect not named in the record; note: 0% is about no effect; nearly all actives have a fitted effect of over 55% in size; growth read by luminescence after 48 h
# RE007 growth inh = less growth of the S. pombe RE007 Vpr strain; S. pombe RE007 Vpr strain, BacTiter-Glo ATP luminescence, 24 h; control for the full effect not named in the record; Potency, µM (doses to about 92.2 µM), without a hit: at the top dose activity change, negative = less growth; 0.21% of 360,000 active; AID 651644; active = well fitted falling curve with a large enough effect; inconclusive = small, poorly fitted or top-dose-only effect; inactive = no such curve, though single readings can be large or run the other way;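 note: % is set by controls: 0 for no effect and ±100 for the full control effect; nearly all actives have a fitted effect of over 50% in size; the assay follows cell death caused by Vpr and the record does not say whether a fall means rescue or toxicity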
#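 Fission yeast RE007 carrying one integrated HIV-1 vpr copy, seeded at OD 0.01 in PMG+AL medium with 23 nL pinned compound. Grown 24 h at 30 degrees; viability read by BacTiter-Glo luminescence after 5 min.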
# Cruzain inh Det = cruzain (T. cruzi) inhibition with detergent; Potency, µM, without a hit: max response, negative = inhibition, most hits filed as inhibitors; purified cruzain, Z-FR-AMC fluorescence, 0.01% Triton; 0.43% of 200,000 active; P25779; active = well fitted curve in the direction sought with a large enough effect; inconclusive = small, poorly fitted or top-dose-only effect, or another doubt; inactive = no such curve, though single readings can be large; an effect the other way counts as inactive or inconclusive;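 note: plate controls were neutral wells for no effect and buffer without enzyme for full effect; nearly all actives have a fitted effect of over 40% in size; top concentration of the series not given in the record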
# Target sequence (P25779 123-467 limits assumed): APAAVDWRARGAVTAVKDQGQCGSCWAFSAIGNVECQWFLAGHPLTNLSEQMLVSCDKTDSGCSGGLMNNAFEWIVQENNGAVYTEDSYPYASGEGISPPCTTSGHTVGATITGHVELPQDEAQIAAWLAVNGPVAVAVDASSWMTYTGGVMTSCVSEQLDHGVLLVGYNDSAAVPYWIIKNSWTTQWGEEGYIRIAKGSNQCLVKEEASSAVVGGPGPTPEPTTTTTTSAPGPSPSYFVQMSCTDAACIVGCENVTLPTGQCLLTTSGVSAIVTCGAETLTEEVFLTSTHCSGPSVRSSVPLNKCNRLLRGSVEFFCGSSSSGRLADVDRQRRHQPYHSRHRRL
#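 Purified cruzain (1.5 nM final) was preincubated with compounds for 15 min at room temperature in 100 mM sodium acetate pH 5.5, 5 mM DTT, 0.01% Triton X-100. Reaction started with 2 uM Z-FR-AMC; AMC fluorescence change over 60 s gave activity.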
# 2A StopGo = lowers the luciferase signal of an FMDV 2A StopGo reporter; Potency, µM (series often up to 57.9 µM), for the others: top-dose signal change, negative = less light; human cells with a luciferase reporter of 2A StopGo recoding; control for the full effect not named in the record; 1.2% of 410,000 active; active = well fitted falling curve with a large enough effect; inconclusive = small, poorly fitted or top-dose-only effect; inactive = no such curve, though single readings can be large or run the other way; tested in HEK293T cells; note: % is set by controls: 0 for no effect and ±100 for the full control effect; nearly all actives have a fitted effect of over 45% in size; luciferase light after 4 h
# Cruzain noTriton = inhibitors of Trypanosoma cruzi cruzain without detergent; AID 1476; purified cruzain, Z-FR-AMC fluorescence, no detergent; Potency, µM, for inactives: max response, negative = inhibition, actives largely listed as inhibitors; P25779; 2.3% of 200,000 active; active = well fitted curve in the direction sought with a large enough effect; inconclusive = small, poorly fitted or top-dose-only effect, or another doubt; inactive = no such curve, though single readings can be large; an effect the other way counts as inactive or inconclusive;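 note: plate controls were enzyme without inhibitor for no effect and buffer without enzyme for full effect; nearly all actives have a fitted effect of over 40% in size; top concentration of the series not given in the record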
#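 Detergent-free condition (0.00005% Triton X-100) in acetate buffer pH 5.5 with DTT. 1.5 nM enzyme and compound were pre-mixed 15 min, then 2 uM Z-FR-AMC substrate added; reaction progress from fluorescence change between first and third reads (60 s).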
# An asterisk follows results filed as active; ? = inconclusive; · = no result given; & = joins results of further samples; [ ] = dose if it differs, or a comment. Unless noted, calls come from the whole dose curve; as a rule, active means well fitted rising curve with a large enough effect; inconclusive means small, poorly fitted or top-dose-only effect; inactive means no such curve, though single readings can be large or run the other way. Potency is the fitted concentration of half-maximal effect.
SMILES,NS1 inh,LASV entry inh,MARV entry inh,SARS PLpro yeast,RE007 growth inh,Cruzain inh Det,2A StopGo,Cruzain noTriton
COc1ccccc1N1C(=O)c2ccc(C(=O)Nc3ccc(F)cc3)cc2C1=O,3%,·,·,-2%,3%,·,?,·
CC1=NN(C(=O)COc2ccc(C)c(C)c2)C(O)(c2ccccc2)C1 (stereo unspecified),8%,-2%,-6%,5%,-6%,-1.4%,-7%,-14%
C/C(CC(=O)Nc1ccccn1)=N\NC(=O)c1cccc(C)c1,2%,1%,26%[46.1 µM],0%,16%,·,2%,·
CC1CCc2onc(C(=O)N3CCN(c4ccccc4)CC3)c2C1 (stereo unspecified),·,5%[46.1 µM],·,·,·,-7.6%,11%,-1%
CCCCn1c(SCC(=O)Nc2cc(C)on2)nnc1-c1ccco1,6%,-12%,-20%[46.1 µM],1%,-1%,1.4%,-17%,-1%
CC(=O)N1CCN(S(=O)(=O)c2cccc(C(=O)NCCc3ccc(Cl)cc3)c2)CC1,·,1%,-5%,2%,2%,·,-1%,·
CC(C)(C)c1ccc(/C=N/NC(=S)NCc2ccccc2)cc1,8%,0.26µM*,1%,0%,-4%,-5.0%,-5%,?
O=C(c1cccc(F)c1)N1CCN=C1SCc1cccnc1,?,·,·,1%,-12%,2.3%,-6%,-10%
Cc1ccc(NC(=O)C2c3ccccc3Oc3ccccc32)nc1,2%,?,?,-1%,4%,·,2%,·
Cc1sc2ncnc(NCc3ccccc3)c2c1C,-31%,-23%,-27%,2%,17%,-1.1%,28µM*,4%
CCOC(=O)c1ccccc1NS(=O)(=O)c1ccc(C)cc1,-1%,-29%,·,-14%,?,0.2%,11%,-7%
Cc1cc(N(CC(=O)O)S(C)(=O)=O)ccc1Br,2%,4%,7%,-1%,30%,4.1%,20%,-6%
COC(C[C@H]1O[C@H]1[C@H](O)[C@@H](C)OCc1ccccc1)OC,-2%,·,·,-2%,0%,·,-16%,·
O=C(Nc1ccccc1-c1ccccc1)NC1CCN(C(=O)N2CCOCC2)CC1,-7%,7%,19%,7%,-16%,2.8%,-24%,2%
Cc1ccc(C(C(=O)NC2CCCCC2)N(CC2CCCO2)C(=O)CCCC(=O)Nc2ccccn2)cc1 (stereo unspecified),-5%,?,-24%[46.1 µM],-1%,-8%,·,4%,·
O=C1CCCC2C3CCCN4CCCC(CN12)C34 (stereo unspecified),-6%,·,·,3%,-6%,6.3%,-15%,-6%
CNc1nc(-c2c(C)n(C)c3ccc(OC)cc23)cs1,8%,?,?,-5%,9%,·,-4%,·
COC(=O)c1scc(S(=O)(=O)C(C)(C)C)c1N,3%,?,-3%&-3%,1%,7%,·,-8%,·
Cc1ccc(NP(=O)(Nc2ccc(C)cc2)Oc2ccccc2)cc1,·,5%[46.1 µM],?,-5%,17%,·,20%,·
O=C1CC(=O)Nc2cc(S(=O)(=O)Nc3cccc(C(F)(F)F)c3)ccc2N1,15%,·,·,-7%,22%,·,6%,·
Cc1ccc(F)cc1NC(=O)/C=C/c1ccc(S(=O)(=O)N2CCOCC2)cc1,·,-19%,2%,-8%,-16%,·,?,·
O=C(C1=NN(c2ccccc2)C2C(=O)N(c3ccc(Cl)cc3)C(=O)C12)c1ccccc1 (stereo unspecified),-10%,-8%,24%,10%,1%,-1.9%,-25%,10µM*
Cc1cccc(C)c1NC(=O)CN(Cc1ccc(Br)cc1)S(=O)(=O)c1ccccc1,·,-19%[46.1 µM],?,·,·,-6.9%,-22%,-2%
COc1cc(C(N)=O)cc(Cl)c1OCc1ccccc1,-30%,0%,?,0%,10%,-2.0%,17%,7%
Cc1cc(C)nc(NC2=NCCN2C(=S)Nc2ccc(C)c(C)c2)n1,4%,-15%,-11%[14.2 µM],-1%,15%,·,-10%,·
CC(C)NC(=O)c1ccc2c(c1)N(CC(=O)N1CCCC1)C(=O)C(C)(C)O2,11%,1%[46.1 µM],-2%[46.1 µM],0%,12%,·,-11%,·
CC(C)c1noc(-c2ccccc2OCC(=O)Nc2ccccc2[N+](=O)[O-])n1,·,-20%[46.1 µM],?,·,·,-10%,?,?
Cc1cccc(C)c1NC(=O)NN1C(C)CCCC1C (stereo unspecified),·,·,0%[46.1 µM],-2%,5%,·,-7%,·
Cc1nc(N2CCN(c3ccccc3)CC2)nc2c1C(=O)CCC2,-143%,8%,-30%,2%,-6%,-3.4%,?,-13%
Cc1ccc(Cl)cc1Nc1nc(-c2sc(NC(=O)c3cccc(Cl)c3)nc2C)cs1,-17%,·,·,-2%,·,11%,·,4µM*
COc1ccc(Cl)cc1S(=O)(=O)N1CCCC(C(=O)NCc2ccncc2)C1 (stereo unspecified),6%,-2%,-16%,8%,-2%,·,?,·
O=C(O)c1ccc(NC(=S)NC(=O)c2cccc(COc3ccccc3)c2)cc1,4%,·,·,-2%,10%,·,-9%,·
Cc1ccc(C(=O)N/C(=C\c2cccc([N+](=O)[O-])c2)C(=O)Nc2cccc(C(=O)O)c2)cc1,12%,12%,-1%,1%,-4%,·,9%,·
COc1cccc2c1cc1c(=O)n(CC(=O)N3CCN(c4cccc(C)c4)C(C)C3)nc(C)n12 (stereo unspecified),·,·,8%[46.1 µM],·,·,2.4%,-10%,44%
Cc1ccc(NC(=O)CNC(=O)c2ccco2)c(Cl)c1,-6%,·,·,0%,5%,·,45%[activator],·
COc1ccc(C(C)=O)cc1CN(c1ccccc1OC)S(=O)(=O)c1cccs1,-15%,?,?,0%,2%,·,25%,·
Cc1ccc(Sc2ncccc2C(=O)O)c(C)c1,-5%,2%,12%,-20%,·,0.9%,-10%,-7%
O=C(CCS(=O)(=O)c1ccccc1)N(Cc1cccnc1)c1nc2c(Cl)cccc2s1,·,-16%[46.1 µM],·,·,·,0.6%,-9%,-8%
Cc1ccc(-c2nnc(SCc3ccccc3)o2)cc1,·,25%[46.1 µM],·,·,·,-2.1%,24%,-2%
CC(C)(C)C(=O)Nc1ccc(N2CCN(c3ccc(C(F)(F)F)cn3)CC2)nc1,1%,7%[46.1 µM],6%[46.1 µM],-1%,-18%,·,-15%,·
Cc1cccc(Oc2ncc(-c3ccc(Cl)cc3)cn2)c1C,-15%,-6%,-24%[46.1 µM],-25%,?,0.6%,?,-15%
COC(=O)CNc1cc(S(=O)(=O)N2CCCCC2)ccc1Oc1cccc(C)c1,29%,?,-8%,-2%,8%,·,1%,·
CCc1noc(-c2ccc(N(C)Cc3ccc(OC)cc3)c([N+](=O)[O-])c2)n1,·,7%[46.1 µM],7%[46.1 µM],·,·,-4.4%,-26%,13%
O=C(O)C/C(=C\c1cc2c(cc1Br)OCO2)c1nc2ccccc2s1,-80%,-1%[46.1 µM],-2%[46.1 µM],-17%,14%,·,-19%,·
Oc1c(Cl)cc(Oc2cc(Cl)c(O)c(CN3CCOCC3)c2)cc1CN1CCOCC1,·,?,?,·,-1%,·,-21%,·
O=C(/C=C/c1ccccc1[N+](=O)[O-])N1CCN(c2ccc(F)cc2)CC1,-7%,·,·,0%,4%,·,2%,·
COCc1cc(C)nc2c1C(=O)NC(c1ccc(F)cc1)N2Cc1ccccc1 (stereo unspecified),·,-20%[46.1 µM],·,·,·,1.0%,-3%,12%
CCOC(=O)N1CCC(N2C(=O)c3ccccc3C2Nc2ccc(C)cc2)CC1 (stereo unspecified),-76%,·,·,-1%,-6%,1.3%,-23%,12%
O=S(=O)(c1ccccc1)c1nc(-c2cccs2)oc1SCc1ccccc1Cl,·,26%[46.1 µM],1%[46.1 µM],·,·,-4.7%,-1%,-1%
CCc1ccccc1N(C)C(=O)c1sc2nc3n(c(=O)c2c1C)CCCCC3,·,-11%[46.1 µM],·,·,·,-2.8%,-7%,-22%
Cc1cccc(OCC(=O)Nc2cc(C)ccc2O)c1,-61%,-5%,18%,-10%,-18%,4.1%,-2%,-8%
Cn1c(C(=O)Nc2ccccc2)cc2sccc21,-109%,?,19%,-3%,?,-6.7%,11%,?
Nc1nc2c(s1)CCc1c-2cnn1-c1ccccc1,-134%,·,·,-31%,·,-22%,0%,-19%
CCOc1ccc(CNC(=O)CCC(=O)N2CC(C)Sc3ccccc32)cc1 (stereo unspecified),·,5%[46.1 µM],·,·,·,-2.3%,-6%,5%
CCOc1ccc2ccccc2c1CNCCN1CCOCC1,-8%,-10%,-11%,-1%,-10%,0.4%,-26%,1%
COc1cc(Cl)cc(C2NC(=O)NC(C)=C2C(C)=O)c1OCC(=O)O (stereo unspecified),-1%,-22%[14.3 µM],26%,6%,12%,5.0%,8%,0%
CCOC(=O)CCc1c(C)c2ccc(OCc3nn[nH]n3)cc2oc1=O,1%,-1%,-1%,-3%,5%,-7.3%,-10%,0%
Cc1ccc(Cl)cc1NC(=S)N(CCCN1CCOCC1)Cc1ccco1,-2%,·,?,2%,0%,·,1%,·
CCCc1cc(=O)c2c(O)cccc2o1,3%,0%,?,-1%,-2%,·,0%,·
Cn1c(=O)c2c(nc3sccn32)n(C)c1=O,0%,6%,29%,-23%,-9%,6.8%,0%,-15%
# The results go on.
SMILES,NS1 inh,LASV entry inh,MARV entry inh,SARS PLpro yeast,RE007 growth inh,Cruzain inh Det,2A StopGo,Cruzain noTriton
S=c1[nH]nc(Cc2ccccc2)n1Cc1ccco1,2%,4%,0%,5%,-12%,-0.6%,-23%,-5%
COc1cc(SC)ccc1C(=O)N1CCN(c2ccccc2F)CC1,-8%,-23%,-5%[46.1 µM],-1%,-7%,·,-2%,·
CCOc1ccc(NC(=O)COC(=O)CCCc2c[nH]c3ccccc23)cc1,-23%,-2%,10%,-15%,-15%,-3.5%,4%,-7%
O=C(NCc1ccccn1)NC12CC3CC(CC(C3)C1)C2,-8%,8%,20%,1%,13%,-5.1%,33%[activator],-4%
COC(=O)NC(=S)N1CCOCC1,9%,8%,-8%,3%,9%,-1.1%,-8%,8%
